TRPML1 ag = activates the human TRPML1 channel; Q9GZU1; TRPML1-expressing cells, Ca2+ dye fluorescence, FDSS; host cell line not named in the record; reference of the full effect not given here; activation, % (test concentration not listed); hit rate 0.12% among 410,000; in the data active = activation above about 50%; inconclusive = about 30% to 50%; inactive = below about 30%; further: 0% is about no effect; the text of the record puts the active cut at 80%
Target sequence (Q9GZU1 whole entry, looked up): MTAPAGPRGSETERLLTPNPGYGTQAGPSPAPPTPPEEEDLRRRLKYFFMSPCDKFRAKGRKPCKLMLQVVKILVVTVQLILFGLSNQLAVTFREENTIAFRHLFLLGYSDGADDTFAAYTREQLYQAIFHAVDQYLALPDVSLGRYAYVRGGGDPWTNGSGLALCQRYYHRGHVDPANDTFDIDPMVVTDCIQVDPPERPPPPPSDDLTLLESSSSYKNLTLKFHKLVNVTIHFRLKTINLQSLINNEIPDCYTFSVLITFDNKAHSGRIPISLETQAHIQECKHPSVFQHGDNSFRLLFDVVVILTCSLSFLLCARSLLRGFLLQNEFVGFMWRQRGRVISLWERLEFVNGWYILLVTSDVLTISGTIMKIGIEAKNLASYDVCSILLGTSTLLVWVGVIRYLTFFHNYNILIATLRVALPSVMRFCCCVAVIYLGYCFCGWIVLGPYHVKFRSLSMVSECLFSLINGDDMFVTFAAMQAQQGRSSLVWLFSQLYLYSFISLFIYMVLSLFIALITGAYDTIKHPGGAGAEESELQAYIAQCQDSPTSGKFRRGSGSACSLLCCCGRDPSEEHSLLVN
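Agonist activity was taken from a 110 s kinetic Ca2+ dye read on the FDSS after pinning compounds onto TRPML1-DL cells. The cells were seeded at 1,500/well with Tet inducer, incubated about 16 h, then dye-loaded at room temperature.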
D2 agonist = agonists of human D2 dopamine receptor (beta-arrestin). DiscoveRx PathHunter D2 beta-arrestin, luminescence, 90 min; 100% = 57 uM dopamine signal. activation, % (concentration not given with the values). hit rate 0.084% among 360,000. P14416; in the data active = activation above about 40%; inconclusive = about 15% to 40%; inactive = below about 15%; further: compound concentration not given in the record; the text of the record calls up to 30% inactive
Target sequence (P14416 whole entry, looked up): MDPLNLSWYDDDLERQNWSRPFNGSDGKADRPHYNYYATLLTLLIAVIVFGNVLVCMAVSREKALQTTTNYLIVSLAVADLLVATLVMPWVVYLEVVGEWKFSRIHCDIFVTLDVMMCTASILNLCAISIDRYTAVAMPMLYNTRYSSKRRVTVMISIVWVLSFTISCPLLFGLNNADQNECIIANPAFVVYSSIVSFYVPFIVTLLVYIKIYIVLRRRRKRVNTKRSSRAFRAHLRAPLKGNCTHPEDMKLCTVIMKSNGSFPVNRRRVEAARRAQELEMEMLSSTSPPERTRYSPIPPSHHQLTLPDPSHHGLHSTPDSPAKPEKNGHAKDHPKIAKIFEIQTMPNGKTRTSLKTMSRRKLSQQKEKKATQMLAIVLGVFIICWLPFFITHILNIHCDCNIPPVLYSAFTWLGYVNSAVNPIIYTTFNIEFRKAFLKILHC
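DiscoveRx PathHunter D2 beta-arrestin cells (2,100/well) attached overnight, then compound-stimulated 90 min at 37 C in HBSS/10 mM HEPES/0.1% Tween-20 buffer; beta-galactosidase complementation read by luminescence after 1 h at ambient temperature. Dopamine 57 uM final (EC100) as control.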
PINK1 modulator = modulators of PINK1 expression | PINK1 immunofluorescence, high-content cytometry, 24 h | Potency, µM (series often up to 76.6 µM), inactives show at the top dose activation (PINK1 increase), most hits filed as activators | hit rate 0.2% among 410,000 | AID 624263; active = well fitted activation curve with a large enough effect; inconclusive = small, poorly fitted or top-dose-only effect; inactive = flat fitted curve, though single readings scatter; cell line not stated here;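 further: potency means the concentration at half of the fitted maximal effect; % of control where 0% means no effect; nearly all actives have a fitted effect of over 65% in size; a mitochondrial uncoupler was the plate control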
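Fluorescence from anti-PINK1 antibody, together with nuclear and cell stains, was scanned on a laser-scanning cytometer. Before staining, stable-line cells were incubated 24 hours with compounds at 5 concentrations; primary antibody 12 h at 10 degrees C.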
Six1-Eya2 inh = Six1/Eya2 interaction inhibition | Q15475+O00167 | AID 651725 | activity change, % (test concentration not listed) | hit rate 0.56% among 360,000 | AlphaScreen GST-Six1/His-Eya2 binding, biochemical; hits give low values; control for the full effect not named in the record; in the data active = activity change below about -65%; inconclusive = about -30% to -65%; inactive = above about -30%; further: on the % scale 0 is the no-effect control and ±100 the full control effect; compound concentration not given in the record
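AlphaScreen with GST-Six1 and His-Eya2 (5X mix: 250 nM and 500 nM), glutathione donor and nickel acceptor beads; buffer 50 mM Tris pH 8.0, 300 mM NaCl, 1 mM TCEP; 1 h at 37 C in the dark.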
TRPML1 blocker = blocks the human TRPML1 channel; hit rate 0.02% among 390,000; AID 624415; activity change, negative = inhibition, % (concentration not given with the values); Q9GZU1; TRPML1-inducible cells, Ca2+ dye fluorescence, FDSS; hits give low values; inhibition of EC80 agonist-evoked calcium signal; in the data active means activity change below about -50%; inconclusive means about -30% to -50%; inactive means above about -30%;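 further: stimulus is agonist 54-4 at its EC80 concentration; on the % scale 0 is the no-effect control and ±100 the full control effect; compound concentration not given in the record; the text of the record puts the active cut at -80%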
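TRPML1-DL cells, Tet-induced overnight (~16 h, 37 °C) at 1,500 cells/well, were loaded with Ca8 no-wash dye plus quencher for 45-90 min at room temperature. Compounds were pinned during FDSS kinetic reading; agonist 54-4 at EC80 (4 uM final) then added.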
D2 potentiator = potentiates the human D2 dopamine receptor allosterically; P14416; DiscoveRx D2 beta-arrestin cells, luminescence, 90 min; 100% = 57 uM dopamine signal; potentiation, % (test concentration not listed); hit rate 0.23% among 360,000; AID 624464; active = potentiation of 50% or more; inconclusive = 30% to 50%; inactive = 30% or less;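 further: compound concentration not given in the record; tested on top of an EC20 dose of dopamine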
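PathHunter D2 cells, attached overnight at 37 deg C, received compound in DMSO plus dopamine at EC20 (50 nM final) for 90 min at 37 deg C. Beta-arrestin recruitment was read as luminescence after 1 h with detection reagent at ambient temperature.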
Starred values were filed as active, the others as inactive; ? = inconclusive; . = no result given; & = joins results of further samples; [ ] = remark or other dose.

nr	structure	TRPML1 ag	D2 agonist	PINK1 modulator	Six1-Eya2 inh	TRPML1 blocker	D2 potentiator
1	CN1C(=O)Cc2cc(S(=O)(=O)N3CCN(c4cccc(Cl)c4)CC3)ccc21	-0.1	-5.8	2.4%	-2	-7	-10
2	CC(=O)Nc1ccc(NC(=O)C/C(C)=N/NC(N)=S)cc1	0.5	-4.6	0.3%	4	-2	-9
3	Cc1ccc(S(=O)(=O)NC(N)=NCCc2ccc(Cl)cc2)cc1C	1.5	-4.0	-0.3%	-4	-4	-20
4	O=C1CN(C(=O)c2ccccc2F)C(c2ccccc2)c2cc(F)ccc2N1 (configuration not stated)	.	-8.1	0.1%	-7	.	-2
5	Cc1nnc(SCC(=O)NC(=O)NC(C)C)s1	0.0	2.0	0.0%	3	-10	-5
6	CCOc1ccc(NC(=O)c2cn3c4c(ccc(Cl)c4c2=O)OC(C)C3)cc1 (configuration not stated)	-0.4	.	0.6%	.	7	.
7	CCC(C)NCC(=O)Nc1ccc(S(N)(=O)=O)cc1 (configuration not stated)	-1.0	-3.6	3.3%	4	6	-2
8	Cc1cc2oc(C(=O)Nc3cccnc3)c(C)c2cc1C	-0.3	-2.1	1.3%	6	14	-10
9	CS(=O)(=O)N1CCN(c2ccccc2NC(=O)c2ccc([N+](=O)[O-])o2)CC1	-0.2	?	0.0%	-10	11	17
10	COc1c(C)cc(Br)cc1C(=O)NCc1cccnc1	0.5	-3.9	2.7%[38.3 µM]	5	-2	-13
11	CC(C)(C)NC(=O)CN(Cc1cccs1)C(=O)CNS(=O)(=O)c1ccccc1	-0.2	-3.3	-2.2%	-1	-13	9
12	CCOC(=O)c1c(-c2cccs2)csc1NC(=O)CC(C)C	5.1	-1.7	1.2%	33	?	-6
13	O=C(Nc1ccc2c(c1)OCO2)C1CC(=O)N(c2ccc(F)cc2)C1 (configuration not stated)	0.7	-3.2	0.1%	-3	-5	-4
14	CC(C)NC(=O)COC(=O)/C=C/c1ccc(F)cc1	-0.6	-1.0	-0.7%	1	9	-4
15	S=C(Nc1ccc(Br)cc1Cl)N1CCN(c2ccccn2)CC1	-0.6	2.0	1.2%	-12	2	-16
16	Fc1ccc(/C=N/N2CCN(Cc3ccccc3)CC2)cc1	-0.5	2.9	7.1%	-30	6	-13
17	CC1CC(C)CN(C/C=C/c2ccccc2[N+](=O)[O-])C1 (configuration not stated)	-0.4	-1.4	?	-7	4	-13
18	CC1(C)CN(c2ccccc2)N(Cc2ccc(F)cc2)C1=O	-0.6	-2.2	-10%[38.3 µM]	2	5	0
19	COc1ccc(OC)c(C2CC(=O)c3c([nH]c(C(=O)OC(C)C)c3C)C2)c1 (configuration not stated)	4.9	2.0	5.6%	-12	-5	0
20	Cc1ccc2c(c1C)NC(=O)C2(O)CC(=O)c1ccc2c(c1)OCO2 (configuration not stated)	0.1	-0.1	-4.3%[38.3 µM]	1	-17	-7

Single values from the list:
In TRPML1 ag, CC(=O)Nc1ccc(NC(=O)C/C(C)=N/NC(N)=S)cc1 is entered as 0.5
In Six1-Eya2 inh, CC(C)NC(=O)COC(=O)/C=C/c1ccc(F)cc1 is entered as 1

Other records.
nr	structure	TRPML1 ag	D2 agonist	PINK1 modulator	Six1-Eya2 inh	TRPML1 blocker	D2 potentiator
21	COc1ccccc1NC(=O)Cc1nnc(SCC(=O)NC2CCCC2)n1C	-0.2	-0.2	-1.2%	6	-10	-1
22	CC(C)CCn1c(=O)c2ccccc2c2ccccc2c1=O	1.3	-6.4	19%	26	17	-3
23	Cc1ccc(-c2c(C)n3c4c(=O)n(C)c(=O)n(C)c4nc3n2CCO)cc1	0.5	.	-1.4%	.	13	.
24	Cc1ccc(/C=N/N2CCCCC2)o1	0.0	4.8	-1.8%	-2	-10	-4
25	O/N=C1\CCc2cc(Cl)ccc21	-0.7	0.9	-2.0%	0	-4	-19
26	Cc1ccc(-n2c(C)cc(C=C3C(=O)N(C)C(=O)N(C)C3=O)c2C)cc1	0.2	-6.4	-1.2%	11	12	-10
27	CCc1cc2c(CN3CCN(CC)CC3)cc(=O)oc2cc1O	-0.2	-3.4	1.3%	1	17	-38
28	O=C1NC(=S)N/C1=C/c1cccc([N+](=O)[O-])c1	2.1	-3.7	-0.6%	-7	-17	-2
29	O=C(CN1C(=O)NC2(CCCCC2)C1=O)Nc1ccc(Cl)c(S(=O)(=O)N2CCOCC2)c1	1.8	-0.4	-0.4%	-3	12	-4
30	COCCCNC(=O)/C(C#N)=C1\N=C(NC(=O)c2cccs2)c2ccccc21	-0.2	-2.3	11%	-21	-2	-3
31	CCc1nc(SCC(=O)N2CCN(c3ccccc3)CC2)c2oc3ccccc3c2n1	2.1	2.0	1.1%[38.3 µM]	-1	-7	-3
32	COc1cccc(CN(C)C(=O)COc2cccc3c2OC(C)(C)C3)c1OC	1.8	0.2	-1.4%	1	-9	-4
33	O=C1N=C(N2CCOCC2)S/C1=C1\C(=O)N(Cc2ccccc2)c2ccccc21	-0.2	-1.7	6.7%	7	14	-12
34	Cc1ccc(-c2nnc(N3CCN(C(=O)COc4ccccc4)CC3)c3ccccc23)cc1	2.0	0.0	34%[38.3 µM]	-11	6	-6
35	COc1cc(C2C(C(=O)Nc3ccc(Cl)cc3)=C(C)Nc3nc(SC)nn32)cc(OC)c1OC (configuration not stated)	1.2	.	-2.0%	.	-1	.
36	NC(=O)c1c(NC(=O)c2ccc(S(=O)(=O)N3CCOCC3)cc2)sc2c1CCCCC2	0.5	-2.4	4.8%	1	-1	-3
37	Cc1c(Cc2ccccc2)sc(NC(=O)c2ccco2)c1C(N)=O	2.1	-1.5	11%[38.3 µM]	-1	-20	-10
38	CC(C)[C@H](NC(=O)CCn1nnc2ccccc2c1=O)C(=O)O	0.0	-0.9	0.1%	0	6	-7
39	c1ccc(-c2nnc(OCc3cccnc3)c3ccccc23)cc1	-0.5	-1.6	-0.2%	-11	-7	-8
40	COc1ccc(NC(=O)CN(C)C(=O)CC2CCCCC2)cc1	0.3	0.0	2.4%	9	31	-2
41	COCCC(=O)N1CCCC(N2CCN(c3ccc(F)cc3)CC2)C1 (configuration not stated)	0.2	2.4	0.2%	8	-13	-7
42	CC(=O)OC(C)C[N+](C)(C)C (configuration not stated)	2.9	-7.0	3.2%	11	-9	-9
43	CC1CCCN(C(=O)CNC(=O)c2cccs2)C1 (configuration not stated)	-0.3	-3.8	0.4%	-2	-11	-3
44	Cc1cccc(C)c1OCC(=O)OCC(=O)Nc1ccc(Cl)cn1	1.7	0.9	-2.0%	9	2	16
45	CCOC(=O)c1c(C)oc2c1c(C(c1ccccc1)N1CCOCC1)c(O)c1ccccc12 (configuration not stated)	-0.9	-2.3	?	-5	2	?
46	CC(C)CNC(=S)NNC(=O)c1csc2c1CCCC2	0.3	-2.3	0.3%[38.3 µM]	-2	6	-20
47	COc1ccc(OC)c(CCNC(=O)CCc2cn(Cc3cc(C)ccc3C)c3ccccc23)c1	-0.1	.	-1.3%	.	27	.
48	CC(/C=C/c1ccccc1)=N/NC(=O)c1cnccn1	1.3	1.2	-0.1%	-86*	3	7
49	CC(=O)NC1CSCC1OC(C)=O (configuration not stated)	0.2	-0.8	-0.3%	6	5	10
50	O=C(/C=C/NNC(=O)c1ccc(Cl)cc1)c1ccccc1	1.8	1.2	2.4%	-10	5	3
51	COc1c([N+](=O)[O-])c(=O)n(-c2ccccc2)c2ccccc12	0.1	4.6	-4.3%	-3	15	12
52	COCCNC(=O)C(c1ccc(O)cc1)N(Cc1ccccc1)C(=O)CCC(=O)Nc1nccs1 (configuration not stated)	-0.3	-0.2	0.7%	-9	-6	-3
53	COc1ccccc1CNC(=O)Cn1nnc(-c2ccncc2)n1	1.1	-2.4	-0.2%	0	-2	-8
54	COc1ccc(OCc2nc3c4cc(OC)c(OC)cc4nc(=S)n3[nH]2)cc1	-0.7	-5.4	-0.3%	-7	-4	-8
55	CCOc1cc(CNCCc2ccc(S(N)(=O)=O)cc2)ccc1OCc1ccc(Cl)cc1	-0.5	3.7	-4.4%	-24	-21	12
56	O=C(Nc1ccccc1Cl)c1c(F)c(F)c(F)c(F)c1F	2.6	-3.9	2.5%	4	12	6
57	Cc1nc2c(C(=O)NCCc3ccc(Cl)cc3)cnn2c(C)c1Cc1ccc(F)cc1	0.7	.	0.5%	.	7	.
58	O=C(CCCOc1ccccc1)Nc1ccc(Cl)cn1	1.3	-2.4	4.9%	0	12	-6
59	O=C(NCc1cccc(Cl)c1)c1ccc(CS(=O)Cc2ccccc2Cl)o1 (configuration not stated)	-0.3&-0.8	0.8	0.2%&-0.3%	-1	0&9	-4
60	COc1ccc2[nH]c(=O)c(CN(CC3CCCO3)C(=O)Nc3ccc(F)cc3)cc2c1 (configuration not stated)	-1.8	0.6	0.5%	11	-9	11
61	CCN1C(=O)c2cccc3c(S(=O)(=O)Nc4ccccc4O)ccc1c23	1.1	6.0	5.0%	-24	15	11
62	CN(Cc1ccccc1)C(=O)CN1C(=O)NC2(CCCCCCC2)C1=O	1.4	4.9	0.2%	11	15	-16
63	COc1ccc(NC(=O)CNC(=O)Cn2cnc3sc(C)c(C)c3c2=O)cc1OC	-0.7	-0.8	-0.5%	0	19	-9
64	COc1cccc(Oc2ccc(C(F)(F)F)cc2NC(=O)CN2C(=O)NC3(CCCC3)C2=O)c1	0.7	0.6	?	0	15	-1
65	N#Cc1ccc(C(=O)NC2CCCc3ccccc32)cc1 (configuration not stated)	0.1	-5.6	3.0%	3	8	-8
66	COc1ccccc1NC(=O)OCC#CCOC(=O)Nc1ccccc1OC	1.8	-1.8	9.1%	19	-27	16
67	CCN(Cc1ccccc1)C(=O)c1nc(-c2cccc(F)c2)n2c1CCCCC2	0.9	.	-0.2%	.	6	.
68	CC(=Nc1ccc(C)c(C)c1)C1=C(O)CCC1=O	-0.5	1.2	1.3%	9	12	-4
69	COc1ccc(Br)cc1CNC(=O)C1CCCN(S(C)(=O)=O)C1 (configuration not stated)	0.6	-0.4	-2.8%[38.3 µM]	4	-1	0
70	CN(C)C1=NCCN1CC1CCCC1	0.1	-4.9	0.1%	7	13	-15

New compounds follow.
nr	structure	TRPML1 ag	D2 agonist	PINK1 modulator	Six1-Eya2 inh	TRPML1 blocker	D2 potentiator
71	COc1cc(OC)c2c(c1O)OC(c1ccccc1)CC2=O (configuration not stated)	.	-3.3	-0.2%	-16	.	-11
72	C=CCN1C(=O)CC(C(=O)NC)SC1=Nc1ccc(C(=O)OCC)cc1 (configuration not stated)	-0.3	-2.9	-1.6%	3	-3	20
73	COC(=O)CC(c1ccc(C(C)C)cc1)n1cccc1 (configuration not stated)	2.8	1.6	1.1%	-7	-13	0
74	CCOC(=O)N1CCN(C(c2cccnc2)c2ccc3cccnc3c2O)CC1 (configuration not stated)	-0.3	-5.9	-1.1%	-89*	45	2
75	COc1ccc(C2/C(=C(/O)c3ccccc3)C(=O)C(=O)N2c2ccccn2)cc1OC (configuration not stated)	-0.5	-1.2	-1.3%	-2	-5	-8
